# High-throughput results deposited in PubChem BioAssay by Southern Research Institute.
# Mtb H37Rv – Mycobacterium tuberculosis H37Rv growth inhibition, cell based, confirmatory dose response (AID 1949). most inactive calls were filed without a number and no value below 0 was filed. inhibition, % at 10 µg/mL, or IC50 in µg/mL where a hit was titrated. 100,000 tested, 1.6% active;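 active = confirmed in a dose series; inconclusive = about 50% or more but not retested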;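 note: bacteria grown 7 days with compound before Alamar blue readout; 0% = untreated bacteria and 100% = reference antibiotic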
# Active calls of the source: *; i = inactive; ? = inconclusive.
smiles | Mtb H37Rv
CCOc1ccccc1NC(=O)C1CCCC1 | i
Cn1c(SCC(=O)NC(c2ccccc2)c2ccccc2)nnc1-c1cccs1 | i
NC(=O)CSc1nc2ccccc2n1C1CCCCC1 | i
CC(Oc1ccc(Cl)cc1Cl)C(=O)NC(=S)Nc1ccc(N2CCOCC2)c(Cl)c1 (stereo not given) | i
COc1ccc(-c2noc(COc3cc(C)cc(C)c3)n2)cc1 | 1%
CC(C)NC(=O)C(=O)NCCN1CCN(S(=O)(=O)c2ccc3ccccc3c2)CC1 | i
C=CCn1c(SCC(=O)N(c2ccccc2)c2ccccc2)nc2ccccc2c1=O | i
COc1ccccc1CNC(=S)Nc1ccc(Oc2ccccc2)cc1 | 7%
Cc1ccccc1C(=O)N1CCN(c2ccc(NC(=O)c3cccnc3)cc2)CC1 | i
O=C(CSc1nc(-c2ccccc2)cc(=O)[nH]1)NCc1ccco1 | i
O=C(Nc1cccc(C(F)(F)F)c1)c1cccc(S(=O)(=O)N2CCCCCC2)c1 | 6%
COc1ccc(Cc2nnc(NS(=O)(=O)c3ccc(OC)cc3)s2)cc1 | i
O=c1c2c(-c3ccc(Br)cc3)csc2ncn1Cc1ccc([N+](=O)[O-])cc1 | 3%
COc1ccc(N/C(=N\c2nc(C)cc(C)n2)NC(=O)c2cccc(F)c2)cc1 | 1%
CCOc1cccc(-c2cc(=O)[nH][nH]2)c1 | i
CC(C)c1nnc(NC(=O)c2sc3ccccc3c2Cl)s1 | 43%
CCN1CCN(CCCCOc2ccc(Cl)cc2Cc2ccccc2)CC1 | i
CC1=C(C(N)=O)C(c2ccco2)C(C#N)=C(SCC(=O)Nc2cccc(Cl)c2C)N1 (stereo not given) | 1%
CCCN1C(=O)C(O)(CC(=O)c2ccc(C(C)(C)C)cc2)c2ccccc21 (stereo not given) | i
O=C(Cc1ccc(Cl)cc1)NCCCc1ccccc1 | i
O=S(=O)(NC1c2ccccc2-c2ccccc21)c1ccccc1 | i
Clc1ccccc1OCCCCN1CCCC1 | i
COc1ccc([N+](=O)[O-])cc1NC(=O)CN(c1ccc(F)cc1)S(C)(=O)=O | i
COc1cc(C(=S)N2CCN(C(c3ccccc3)c3ccccc3)CC2)ccc1O | i
COc1ccccc1CNC(=O)C1CCCCC1C(=O)O (stereo not given) | i
COC(=O)CN(c1cc(C)cc(C)c1)S(C)(=O)=O | i
CC1(C)C(=O)C2(CCCCC2)C(=O)OC1c1ccccc1[N+](=O)[O-] (stereo not given) | i
Cc1cc(=O)n2ncn(Cc3ccccc3)c2n1 | i
CC1CC(C)CN(C(=O)CN2C(=O)c3ccccc3S2(=O)=O)C1 (stereo not given) | i
Cc1ccc(C(C)C)c(OCCN(C)Cc2ccccc2)c1 | i
O=C(Nc1ccccc1N1CCOCC1)c1cccc(Cl)c1Cl | 5%
COC(=O)c1ccsc1NC(=O)c1ccsc1NC(=O)c1cccnc1 | i
N#CCNC(=O)COc1ccc(Cl)cc1 | i
O=C(Nc1ncn[nH]1)c1cc(Cl)ccc1Cl | i
CCOc1ccc(-n2c(SCC(=O)Nc3c(C)cccc3CC)nc3ccccc3c2=O)cc1 | i
CCc1nc2cc(Cl)c(Cl)cc2[nH]1 | 2%
CCCOC(=O)Nc1ccc(C(N)=O)cc1 | i
Cc1cc(C)c2c(=O)n(-c3ccccc3)[nH]c2n1 | i
CC1CCc2cc(F)ccc2N1C(=O)CN1C(=O)c2ccccc2C1=O (stereo not given) | i
CCC(C)c1ccccc1NC(=S)Nc1cc(OC)ccc1OC (stereo not given) | i
COc1ccc2cc(Br)ccc2c1CC(=O)Nc1ccccc1C | i
Cc1ccc(C23CC4CC(CC(NC(=O)NC(C)(C)CO)(C4)C2)C3)cc1 | i
O=C(Nc1cc(C(F)(F)F)ccc1N1CCOCC1)c1cccs1 | i
COc1ccc(NC(=O)CSCC(=O)Nc2ccccc2)cc1 | i
CCc1c(C)sc(NC(=O)C2CCCO2)c1C(=O)OC(C)C (stereo not given) | 1%
CCC(=O)N1N=C(c2ccccc2)CC1c1ccc(F)cc1 (stereo not given) | 6%
COc1ccc(S(=O)(=O)N(C)CC(=O)Nc2cc(Cl)c(Cl)cc2Cl)cc1 | i
Cc1cc(C)c(OCC(=O)Nc2ccc(N3CCN(C)CC3)cc2)c(Cl)c1 | i
COc1ccc(CNC(=S)Nc2ccccc2)cc1OC | i
COc1ccc([N+](=O)[O-])cc1COc1ccc2c(C)cc(=O)oc2c1C | i
COc1cccc(N2CCN(C(=O)c3cccnc3)CC2)c1 | i
Cc1csc2nc(-c3ccccc3)c(Sc3ccc([N+](=O)[O-])cc3)n12 | 3%
CC(=O)N(c1ccc2oc3c(c2c1)CCCC3)S(=O)(=O)c1ccc(F)cc1C | 4%
CC1=C(C(=O)Nc2ccccc2)C(c2ccccc2[N+](=O)[O-])n2nnnc2N1 (stereo not given) | 1%
O=C(Cc1ccc(Br)cc1)Nc1ccc(S(=O)(=O)N2CCCC2)cc1 | i
COc1ccc(CCN2C(=O)N(c3cccc(Cl)c3)C(=O)C2CC(=O)Nc2ccc(F)cc2)cc1 (stereo not given) | 6%
Cc1ccc(-n2c(SCC(=O)Nc3ccc(C(N)=O)cc3)nnc2-c2ccc(Cl)cc2)cc1 | i
C=CCOc1ccc(CNc2ccc(N3CCCCC3)cc2)cc1OC | 1%
Nc1cccc(Oc2ccc3c(c2)C(=O)N(CCC(=O)O)C3=O)c1 | i
O=C(/C=C/Nc1ccc(F)c(Cl)c1)c1ccc(Br)cc1 | 3%

# (more compounds)
smiles | Mtb H37Rv
Cc1cccc(NC(=O)NCCN2CCN(c3ccc(F)cc3)CC2)c1C | 11%
O=C(NN1C(=O)C2C3C=CC(O3)C2C1=O)c1cccc(Br)c1 (stereo not given) | i
COc1cccc(C(=O)NC(c2ccccc2OC)c2c(O)ccc3ccccc23)c1 (stereo not given) | 0%
COc1ccc(N2CC(C(=O)Nc3nccs3)CC2=O)cc1 (stereo not given) | i
O=C(CN(C(=O)c1ccc(Cl)cc1)N1C(=O)c2ccccc2C1=O)c1cccs1 | i
CCCCN1C(=O)C2NN=C(C(=O)OC)C2C1=O (stereo not given) | i
CN(CC(=O)NCC1CCCO1)S(=O)(=O)c1ccc(Cl)cc1 (stereo not given) | i
COC(=O)Nc1scc(-c2ccc(OC)cc2OC)c1C(=O)OC | i
O=C(CSCCO)Nc1cccc(C(F)(F)F)c1 | i
N#Cc1c(NC(=S)NC(=O)c2cccs2)sc2c1CCC2 | i
COc1ccc(C2C(C#N)=C(N)Oc3n[nH]c(C)c32)cc1CN1CCN(c2ccc(F)cc2)CC1 (stereo not given) | i
S=c1[nH]nc(-c2ccc3ccccc3n2)n1-c1ccccc1 | 0%
CN1CCN(NC(=S)Nc2ccc3c(c2)OCO3)CC1 | 2%
COC(=O)c1sc2cc(NC(=S)Nc3c(C)n(C)n(-c4ccccc4)c3=O)ccc2c1Cl | 3%
O=c1oc2cc(O)ccc2c2c1CCCCC2 | i
CN(C)S(=O)(=O)c1cccc(C(=O)Nc2cccnc2)c1 | i
COc1ccc(C(=O)CN2CCN(C(=O)c3ccccc3)CC2)cc1 | i
CC(C)CC(=O)Nc1ccc(Cl)cn1 | i
O=C(CCc1ccccc1)Nc1cccc(-c2nnc(-c3ccccc3)o2)c1 | i
COc1ccccc1NC(=O)CCSc1ccc(C)cc1 | 2%
COC(=O)c1ccc(OCC(=O)N2CCCCC2)cc1 | i
CC(c1ccccc1)n1c(-c2ccc(Cl)cc2)n[nH]c1=S (stereo not given) | i
COc1ccc2nc(N/C(N)=N/C(=S)Nc3ccc(C)c(C)c3)nc(C)c2c1 | ?
c1ccc2oc(-c3nn4c(-c5ccncc5)nnc4s3)cc2c1 | 2%
Cc1ccc(C(=O)NC(=S)Nc2ccc(CN3CCCCC3)cc2)c(C)c1 | i
Cc1c(CC(=O)O)c(=O)oc2c(C)c(OCc3ccccc3)ccc12 | i
O=C(Nc1nccs1)c1cccs1 | 8%
CCOc1cc(CO)cc(Cl)c1OCc1ccc(Br)cc1 | 3%
COc1ccc(OC)c(N(CC(=O)NCc2cccnc2)S(C)(=O)=O)c1 | i
CC(C)(C)NS(=O)(=O)c1ccc(NC(=O)c2ccc(-c3ccccc3)cc2)cc1 | i

# Given field by field: part of the list above.
N#Cc1c(NC(=S)NC(=O)c2cccs2)sc2c1CCC2
  Mtb H37Rv: i
COc1ccc(C2C(C#N)=C(N)Oc3n[nH]c(C)c32)cc1CN1CCN(c2ccc(F)cc2)CC1 (stereo not given)
  Mtb H37Rv: i
S=c1[nH]nc(-c2ccc3ccccc3n2)n1-c1ccccc1
  Mtb H37Rv: 0%
CN1CCN(NC(=S)Nc2ccc3c(c2)OCO3)CC1
  Mtb H37Rv: 2%

# New compounds follow.
smiles | Mtb H37Rv
C=C(C)c1cccc(C(C)(C)NC(=O)N2CCN(c3ccccc3F)CC2)c1 | 2%
CC(C)(C)c1ccc(C(=O)Nc2ccc(Cl)cc2F)cc1 | i
COc1ccc(C(=O)NC(=S)Nc2ccc(C(=O)O)cc2)cc1Cl | i
COc1cc(NC(=O)Nc2cccc(C(C)=O)c2)cc(OC)c1OC | i
CC(C)(C)Cc1nnc(NC(=O)CSCc2ccccc2)s1 | i
CCCOc1ccccc1C1NC(=S)NC(C)=C1C(=O)Nc1ccccc1 (stereo not given) | i
O=C(NCCCCNc1ccc([N+](=O)[O-])cc1)c1cc(F)c(F)cc1Cl | 3%
C=CCn1c(Cc2ccccc2)n[nH]c1=S | i
Cc1ccc(OCCNC(=O)c2ccccc2I)cc1 | 4%
COc1ccc(-c2cccc(C(=O)NCCOc3ccccc3)c2)cc1 | i
Cc1cc(C)c(C)c(OCCn2ccnc2)c1 | i
CN(Cc1ccccc1)C(=O)c1nn2cccnc2c1Cl | i
Fc1ccc(Nc2nnc(-c3ccncc3)s2)cc1Cl | i
Cc1cccc(NC(=S)Nc2ccccc2-c2ccccc2)c1 | 3%
CCOC(=O)N1CCN(C(=O)C2CCNCC2)CC1 | i
COCCNCCOc1c(Cl)cc(C)cc1Br | i
N#C/C(=C\c1ccoc1)S(=O)(=O)c1ccccc1 | 0%
O=C(NC(=S)Nc1ccc(Cl)c(C(=O)O)c1)c1cccc(COc2ccccc2)c1 | i
Cc1ccc(C(=O)Nc2ccccc2C(=O)O)cc1N | 16%
COc1cc(Cl)c(S(=O)(=O)Nc2ccccn2)cc1Cl | i
CCOC(=O)c1cc(NC(=O)Nc2ccc(OC)c(OC)c2)cc(C(=O)OCC)c1 | i
CSc1cccc(NC(=O)CN(c2ccccc2)S(=O)(=O)c2ccc(C)cc2)c1 | 5%
CC(C)CNC(=O)c1ccccc1NC(=O)c1ccccc1Br | i
Cc1ccc(OCC(=O)N2CCc3ccccc3C2)c(C)c1 | i
O=C(NC(=S)Nc1ccc2oc(=O)ccc2c1)C(c1ccccc1)c1ccccc1 | i
Cc1ccc(C)c(NC(=O)CSc2nnc(-c3ccc(N)cc3)n2C)c1 | i
Cc1onc(-c2c(Cl)cccc2Cl)c1C(=O)n1cnc2ccccc21 | i
Cc1cc(C)cc(OC(=O)C(Cc2ccccc2)N2C(=O)c3ccccc3C2=O)c1 (stereo not given) | i
CCOC(=O)c1c(C)oc2c(F)c(F)c(F)c(F)c12 | i
CCN(CC)S(=O)(=O)c1ccc(NS(=O)(=O)c2ccc(Br)s2)cc1 | i

# 3 compounds already listed, ordered by molecular weight, falling:
smiles | Mtb H37Rv
CCOc1ccc(-n2c(SCC(=O)Nc3c(C)cccc3CC)nc3ccccc3c2=O)cc1 | i
O=C(Nc1cccc(C(F)(F)F)c1)c1cccc(S(=O)(=O)N2CCCCCC2)c1 | 6%
COC(=O)c1ccsc1NC(=O)c1ccsc1NC(=O)c1cccnc1 | i

# Continuation.
smiles | Mtb H37Rv
COc1ccc(C(=O)N2c3ccc(F)cc3CCC2C)cc1 (stereo not given) | i
CCC(C(=O)OC(C)C)n1cnc2sc(C(=O)Nc3ccccc3OC)c(C)c2c1=O (stereo not given) | i
COc1ccc(C)cc1NC(=O)CN(Cc1ccc(Cl)c(Cl)c1)S(=O)(=O)c1ccccc1 | i
O=C(Nc1cccc(CCc2ccccn2)c1)c1ccc2c3c(cccc13)CC2 | 6%
O=C(CC1(O)C(=O)Nc2ccccc21)c1ccc2c(c1)OCO2 (stereo not given) | i
O=C1CC(c2ccc(C(F)(F)F)cc2)c2cc3c(cc2N1)OCCO3 (stereo not given) | 3%
O=S(=O)(Cc1ccccc1)NCc1ccco1 | 0%
CCCc1nc2c(sc3nc4c(cc32)COC(C)(C)C4)c(=O)o1 | 21%
COC(=O)c1ccc2nc(NC(=O)CSc3nc(O)c(-c4ccccc4)c(=O)[nH]3)sc2c1 | 1%
COc1c(C)cc(Br)cc1C(=O)Nc1ccccc1C | 3%
OCC1CCCN(C(=S)NCCc2ccccc2)C1 (stereo not given) | i
CN(C)CCNC(=O)c1ccc(Cl)s1 | i
NC(=O)CN(Cc1ccc(Cl)cc1)S(=O)(=O)c1ccc(Br)cc1 | i
CCOc1cccc(/C=C/c2ccc3cccc(O)c3n2)c1OC | ?
CC1CCN(c2nnnc3c2sc2nc(N4CCOCC4)c4c(c23)CCCC4)CC1 | i
COc1ccc(CCNC(=O)C2CC2c2ccccc2)cc1 (stereo not given) | 13%
Cc1ccc(NC(=O)CSc2nc(S(=O)(=O)c3ccc(C)cc3)c(Cl)s2)cc1 | i
CCn1c(Cc2c(C)[nH]c3ccccc23)nnc1SCC(=O)NC12CC3CC(CC(C3)C1)C2 | 2%
Fc1ccc(-n2c(SCCOc3ccccc3)nnc2-c2ccccc2)cc1 | i
Cc1cccc(C(=O)Nc2ccc(Cl)cc2)c1[N+](=O)[O-] | i

# This is a subset; rates above refer to the full screens.
